Vaccinia Venus: vaccinia inhibition (Venus reporter). hit rate 0.46% among 330,000. Vaccinia virus Venus reporter expression, fluorescence. AID 720580. Potency, µM (doses to about 36.5 µM), for the others: top-dose activity change, negative = inhibition, usual class: inhibitors; active means well fitted inhibition curve with a large enough effect; inconclusive means small, poorly fitted or top-dose-only effect; inactive means no such curve, though single readings can be large or run the other way; tested in A549 cells; also: nearly all actives have a fitted effect of over 30% in size; inactives centre near -10
VACV mCherry inh: vaccinia inhibition (mCherry reporter); Vaccinia virus mCherry reporter infection, fluorescence; about a quarter of the inactives have no number; Potency, µM (doses to about 36.5 µM), inactives show top-dose activity change, negative = inhibition, actives largely listed as inhibitors; hit rate 0.63% among 310,000; AID 720579; active = well fitted inhibition curve with a large enough effect; inconclusive = small, poorly fitted or top-dose-only effect; inactive = no such curve, though single readings can be large or run the other way; tested in A549 cells; also: nearly all actives have a fitted effect of over 35% in size; inactives centre near -10
Active calls of the source: *; i = inactive; ? = inconclusive; nt = not tested or not shown; & = joins results of further samples; [ ] = dose if it differs, or a comment. % is scaled to controls: 0 for no effect and ±100 for the full control effect; potency is read from the fitted curve at half-maximal effect.

SMILES	Vaccinia Venus	VACV mCherry inh
Cc1ccc(-c2noc(CN(C3CCCCC3)S(=O)(=O)c3ccc(Cl)cc3)n2)cc1	-9.3%	-9.4%
COC(=O)N/N=C/c1cc(C)n(-c2cccc3ccccc23)c1C	-12.7%	-7.0%
COc1cc(CCC(=O)OCC(=O)Nc2ccc(C)cc2Cl)cc(OC)c1OC	-6.0%	-22.9%
Cc1sc(NC(=O)Nc2ccccc2)c(C(N)=O)c1C	-27.5%	-26.7%
CCS(=O)(=O)Nc1cccc(C2=NN(S(C)(=O)=O)C(c3ccccc3)C2)c1 (configuration not stated)	14.3%	i
O=C(CSc1nnc(-c2ccncc2)n1-c1ccccc1)NC1CC1	-2.1%	-4.8%
COc1cc(C(=O)N2CCN(c3cc(Cl)ccc3Cl)CC2)cc(OC)c1OC	-28.2%	-11.4%
O=C(NC1CCCCC1)C(c1ccncc1)N(C(=O)c1csnn1)c1ccc(F)cc1 (configuration not stated)	-8.5%	-26.7%

More results follow.
SMILES	Vaccinia Venus	VACV mCherry inh
CC(C)/C=C1\CC/C(=C\c2ccc(N(C)C)cc2)C1=O	1.1%	i
O=C(NCCCN1CCOCC1)c1ccc(Sc2ccc(F)cc2)c([N+](=O)[O-])c1	-18.3%	i
Cc1cccc(NC(=O)c2nc[nH]c2C(=O)N[C@@H](C)c2ccccc2)c1	?	-14.6%
COc1cc(NC(=O)c2cccc([N+](=O)[O-])c2)ccc1NC(=O)c1ccco1	-0.9%	-2.2%
Cc1cc(OCC(=O)N2CCN(c3ncccn3)CC2)ccc1Cl	-7.5%	-9.7%
CCNc1nc(-c2cc(C)n(Cc3ccco3)c2C)cs1	16.7%	13.7%
O=C(Nc1nnc(-c2ccc3c(c2)CCCC3)o1)c1ccccc1	?	10µM*
O=C(NCCc1csc2nc(-c3ccccc3F)nn12)c1ccccc1C(F)(F)F	-25.6%	-14.3%

Remaining list, next part:
SMILES	Vaccinia Venus	VACV mCherry inh
Cc1ccc(C2/C(=C(/O)c3ccc(OC(C)C)cc3)C(=O)C(=O)N2CCN2CCOCC2)cc1 (configuration not stated)	-13.6%	nt
COc1ccc(-c2[nH]c3ccccc3c2SCCNC(=O)c2cc3ccccc3oc2=O)cc1	?	-27.6%
O=C(Nc1ccc(N2CCN(C(=O)c3ccc(Cl)cc3)CC2)cc1)c1ccc([N+](=O)[O-])o1	?	-20.9%
COc1cccc2sc(N(CCCN(C)C)C(=O)c3sc4ccccc4c3Cl)nc12	?	-5.6%
COc1ccc(NC(=O)COC(=O)Cc2coc3cc(OC)ccc23)c(OC)c1	-16.8%	i
Cc1ccc(CNC(=O)c2nc(SCc3cccc(C)c3)ncc2Cl)cc1	3.5%	i
Cc1ccc(SCc2nc(-c3ccccn3)no2)cc1	-0.8%	nt
O=C(NNc1ncccc1Cl)c1c(Cl)cccc1Cl	-7.5%	i

Exported as labelled records: part of the list above
structure: O=C(Nc1ccc(N2CCN(C(=O)c3ccc(Cl)cc3)CC2)cc1)c1ccc([N+](=O)[O-])o1
  Vaccinia Venus: ?
  VACV mCherry inh: -20.9%
structure: COc1cccc2sc(N(CCCN(C)C)C(=O)c3sc4ccccc4c3Cl)nc12
  Vaccinia Venus: ?
  VACV mCherry inh: -5.6%
structure: COc1ccc(NC(=O)COC(=O)Cc2coc3cc(OC)ccc23)c(OC)c1
  Vaccinia Venus: -16.8%
  VACV mCherry inh: i
structure: Cc1ccc(CNC(=O)c2nc(SCc3cccc(C)c3)ncc2Cl)cc1
  Vaccinia Venus: 3.5%
  VACV mCherry inh: i

Continuation:
SMILES	Vaccinia Venus	VACV mCherry inh
CCN(CC)C(=O)CSc1nc(N)c2c3c(sc2n1)CC(C)CC3 (configuration not stated)	-23.0%	?
CCc1ccc(CN(C)C(=O)CCc2nnc(Cc3cccc(C)c3)o2)nc1	-7.6%	-22.6%
CCC(C(=O)NCc1cc(OC)ccc1OC)n1nc(C)c2sc3ccccc3c2c1=O (configuration not stated)	-21.9%	-13.0%
CCn1c2ccccc2c2cc(NC(=O)COc3cc(C)c(Cl)c(C)c3)ccc21	-5.7%	-4.1%
Cc1ccc(S(=O)(=O)N(CCC(=O)NCC(c2ccccc2)N(C)C)c2ccccc2)cc1 (configuration not stated)	-19.6%	-27.8%
CC(O)c1c(OCc2ccccc2)ncnc1OCc1ccccc1 (configuration not stated)	-18.6%	nt
COc1ccc(S(=O)(=O)Nc2cccnc2)cc1OC	-11.0%	-19.2%
CCOc1ccccc1CNC(=O)C1CCN(c2nn3cc(-c4ccc(F)cc4)nc3s2)CC1	-10.2%	-3.9%

The listing continues:
SMILES	Vaccinia Venus	VACV mCherry inh
COc1ccccc1NC1=C(Cl)C(=O)N(C2CCCCC2)C1=O	-6.0%	-11.6%
O=C(c1cnsn1)N1CCOc2ccc(CN3CCOCC3)cc2C1	-9.5%	-12.1%
COc1ccc(S(=O)(=O)Nc2cccc3c2O[C@@H](CN(C)Cc2ccc(C(=O)O)cc2)[C@@H](C)CN([C@H](C)CO)C3=O)cc1	6.1%	i
COc1ccccc1N(CC(=O)NCc1ccccc1)C(=O)CCC(=O)Nc1nccs1	-7.0%	-8.0%
CN(C)C(CNC(=O)C1CCN(S(=O)(=O)c2ccc(Cl)cc2)CC1)c1ccccc1 (configuration not stated)	-16.3%	-21.4%
CCOc1ccc(N2CC(O)(c3cccs3)[N+]3=C2CCCC3)cc1 (configuration not stated)	-1.4%	-4.9%
Cc1ccc(OCC(=O)NCc2ccc3c(c2)OCO3)c([N+](=O)[O-])n1	-0.2%	i
O=C(Nc1cc(C(F)(F)F)ccc1N1CCOCC1)c1cccc(S(=O)(=O)N2CCOCC2)c1	-5.5%	-24.3%

(continued)
SMILES	Vaccinia Venus	VACV mCherry inh
COc1ccccc1C(=O)NNC(=O)c1ccc(Br)cc1	-11.3%	-25.6%
COc1cc(OC)cc(C(=O)N[C@H](C(=O)NNC(=O)c2ccc(Br)cc2)C(C)C)c1	-8.7%	-25.3%
CC1(c2nnc(-c3cccc(Cl)c3)o2)CC(c2c(Cl)cccc2Cl)=NO1 (configuration not stated)	-12.8%	i
COCCN(C(=O)Cn1nnc2ccccc21)C(C(=O)NC1CCCCC1)c1ccc(OC)cc1OC (configuration not stated)	-10.7%	-5.3%
O=C(O)CCN1C(=O)c2ccc(NC(=O)c3cccs3)cc2C1=O	-9.1%	i
O=C(Nc1cccc(C(F)(F)F)c1)c1cccc2c(-c3cccnc3)coc12	-11.3%	i
CS(=O)(=O)N(CC(=O)NCCC1=CCCCC1)c1ccc2c(c1)OCO2	-4.7%	-17.9%
Cc1nc2cc(NC(=O)c3ccc(N4C(=O)CCC4=O)cc3)ccc2s1	-2.6%	-14.8%

The results go on:
SMILES	Vaccinia Venus	VACV mCherry inh
Cc1ncc(CN2CCCC(CCC(=O)NCc3ccc(F)c(F)c3)C2)s1 (configuration not stated)	-7.3%	-26.4%
Cc1c(Cl)ccc2sc(N3CCN(C(=O)c4ccco4)CC3)nc12	-2.6%	-14.3%
COc1ccc(Cl)cc1N1C(=O)C2CCCN2C1c1ccccc1F (configuration not stated)	1.3%	-8.7%
O=c1c2oc3ccccc3c2n(Cc2cccc(C(F)(F)F)c2)c(=O)n1Cc1ccc2c(c1)OCO2	-4.1%	1.2%
CCOc1ccccc1C(=O)NC(C(=O)N(C)c1c(N)n(Cc2ccccc2)c(=O)[nH]c1=O)C(C)C (configuration not stated)	-17.7%	-20.4%
C[C@@H]1COC(=O)[C@H](Cc2ccc(F)cc2)C/C=C\C[C@@H](CC(=O)N[C@H](CO)Cc2ccccc2)C(=O)N1	-22.0%	-0.3%
O=C(Nc1nnc(SCc2ccc(F)cc2)s1)C1CC(=O)N(Cc2ccccc2)C1 (configuration not stated)	-7.8%	-1.5%
O=[N+]([O-])c1cc([As](=O)(O)O)ccc1O	-14.9%&-7.1%	-13.2%&-14.9%

More compounds.
SMILES	Vaccinia Venus	VACV mCherry inh
C=CCNc1nc(Nc2ccc([N+](=O)[O-])cc2)nc(N2CCCC2)n1	2.0%	i
COc1c(F)c(F)c(C(=O)Nc2ccccc2N2CCN(C(C)=O)CC2)c(F)c1F	18.6%	nt
Cc1cc(Oc2nc3c(C)cccn3c(=O)c2/C=C(\C#N)S(=O)(=O)c2ccc(Cl)cc2)ccc1Cl	-18.4%	i
COc1ccc(N(CC(=O)N/N=C/c2cccs2)S(=O)(=O)c2ccccc2)cc1	-10.9%	-5.3%
COc1cccc(-c2cnc(C(O)c3c(C)cccc3C)[nH]2)c1 (configuration not stated)	10.2%	12.9%
CCN(CC)CCOC(=O)c1ccc(N=CC2=C(O)CC(C)(C)CC2=O)cc1	-8.4%	-24.7%
C/C(=C\c1ccco1)C1C(C#N)=C(N)Oc2n[nH]c(-c3ccc(C)cc3)c21 (configuration not stated)	-23.6%	-2.8%
CC1(c2nnc(-c3ccncc3)o2)CC(c2c(Cl)cccc2Cl)=NO1 (configuration not stated)	-19.5%	0.3%

Other records follow.
SMILES	Vaccinia Venus	VACV mCherry inh
CC(=O)Nc1nc(-c2ccc3c(c2)CCN3C(=O)C2CC2)c(C)s1	-17.5%	-16.4%
COc1ccc(NC2=C3CC(C)CC=C3N(c3ccc(OC)cc3)C2=O)cc1 (configuration not stated)	6.3%	-23.8%
O=C(COC(=O)c1ccccn1)Nc1ccc2c(c1)OCCO2	-5.5%	-16.6%
Cc1ccc(S(=O)(=O)N2CCC3(CC2)OCCN3S(=O)(=O)c2cccs2)cc1	-4.3%	i
Cc1ccc(S(=O)(=O)N(C)c2c(C)ccc(S(N)(=O)=O)c2C)cc1	-12.3%	-3.6%
COC(=O)c1cccc(NC(=O)c2cccnc2)c1	-4.6%	-6.5%
O=C(CNC(=O)c1ccc2ccccc2c1)NCc1ccc(F)cc1	-14.8%	-12.4%
COC(=O)c1ccc(NC(=O)CN2C(=O)c3ccccc3S2(=O)=O)cc1	-17.6%	i

(more compounds)
SMILES	Vaccinia Venus	VACV mCherry inh
CCCN(CCC)c1nc(N)nc(-c2cc(Cl)ccc2OC)n1	?	?
CCOCCCNS(=O)(=O)c1ccc(NC(=O)CN2C(=O)c3ccccc3C2=O)cc1	7.6%	i
CCC(=O)C1=C(c2ccc(OC)c(OC)c2)N(C(=O)CC)n2c(CC)nnc2S1	0.7%[7.34 µM]	0.8%[7.34 µM]
CCOc1ccccc1-n1c(C)cc(C=O)c1C	-11.0%	-12.3%
O=C(CNC(=O)C1COc2ccccc2O1)N/N=C\c1ccc(Br)cc1 (configuration not stated)	-20.8%	-4.3%
Cc1ccccc1Cn1c(CCCNC(=O)C2CCCCC2)nc2ccccc21	-15.3%	-27.9%
CCOc1ccc(C2SCC(=O)N2c2c(C)n(C)n(-c3ccccc3)c2=O)cc1 (configuration not stated)	8.3%	nt
CCOC(=O)C1=CCN(S(=O)(=O)c2ccccc2F)C1c1ccccc1 (configuration not stated)	-10.7%	i

(next part)
SMILES	Vaccinia Venus	VACV mCherry inh
Cc1ccc(CNC(=O)C2CCCN(S(=O)(=O)c3cccc4nsnc34)C2)cc1 (configuration not stated)	-15.0%	-21.0%
O=C(NC1CCCC1)C(c1cccs1)N(C(=O)c1csnn1)c1ccccc1F (configuration not stated)	-0.6%	i
COc1ccccc1NC(=O)COC(=O)CN1C(=O)C(=O)c2ccccc21	10.1%	?
CCC(CO)Oc1cc(NCc2cccc(OC)c2)c2ncn(C(C)C)c2c1 (configuration not stated)	-9.0%	-22.4%
Cc1ccc(NC(=O)CCS(=O)(=O)c2cccc3nonc23)cc1	0.8%	i
C=CCNc1ncnc2c1[nH]c1ccccc12	-17.9%	nt
CCOC(=O)C(NC(=O)CC)C(O)c1cccc([N+](=O)[O-])c1 (configuration not stated)	-4.3%	i
CCCNc1ccc(S(=O)(=O)N(CC)CC)cn1	-5.2%	-7.1%

Going on with the list.
SMILES	Vaccinia Venus	VACV mCherry inh
CC(OC(=O)CCC(=O)c1cccs1)C(=O)Nc1ccccc1[N+](=O)[O-] (configuration not stated)	-12.9%	i
O=C(CN1CCCCC1)NC(=O)NCc1ccccc1	-7.5%	-8.6%
COc1ccc(OC)c(C(=O)NC(CC(N)=O)c2ccc(NC(C)C)c([N+](=O)[O-])c2)c1 (configuration not stated)	-8.9%	i
Cc1ccc(NC(=O)C(C)Sc2nc(=O)cc(N)n2-c2ccccc2)cc1 (configuration not stated)	-8.2%&1.9%	-0.1%&-10.0%
CC(C)(CNC(=O)c1ccc(-c2cccc(C(F)(F)F)c2)o1)N1CCOCC1	-29.0%	-16.4%
CC1(C(=O)Nc2ccc(Cl)c(Cl)c2)CCN1C(=O)CC1CCCC1 (configuration not stated)	-22.0%	-0.3%
COc1ccccc1NC(=O)CSc1nccn1Cc1ccccc1	-15.9%	-19.7%
Cc1ccc(/C=N/N2CCN(Cc3ccccc3)CC2)cc1	-16.9%	-19.2%

Remaining list, next part
SMILES	Vaccinia Venus	VACV mCherry inh
O=C(C1=C[C@H](c2csc3ccccc23)C[C@H](OCc2ccc(CO)cc2)O1)N1CCN(Cc2ccc3c(c2)OCO3)CC1	?	?
CC(=O)c1c(C)[nH]c(C(=O)Nc2ccc(Cl)c(S(=O)(=O)N(C)C)c2)c1C	-13.4%	-6.6%
O=C(Nc1nc2n(n1)C(c1ccccc1)C=C(c1ccccc1)N2)c1ccco1 (configuration not stated)	-16.2%	-13.2%[1.46 µM]
O=C(N/N=C/c1ccoc1)c1cccc([N+](=O)[O-])c1	-10.7%	-22.4%
CCOc1cc(C(=S)N2CCCC2)ccc1OC	-9.2%	-9.0%
CC(=O)C(=Cc1cc(C)n(-c2ccccc2)c1C)C(C)=O	-5.4%	-18.0%
COc1ccc(NS(=O)(=O)c2ccc3[nH]c4c(c3c2)CCCC4)cc1OC	?	?

High-throughput results as filed in PubChem BioAssay.

Not a hit list (roughly 0.88% active in at least one column).
